Source: PubChem
gsp ag: gsp mutant agonism | gsp mutant cells, cAMP HTRF, 30 min; control for the full effect not named in the record | Potency, µM (titrated, usually from 76.9 µM), without a hit: at the highest dose activation (cAMP increase), actives largely listed as activators | 340,000 tested, 0.13% active; active = well fitted activation curve with a large enough effect; inconclusive = small, poorly fitted or top-dose-only effect, or another doubt; inactive = no such curve, though single readings can be large or run the other way; cell line not stated here;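 further: phosphodiesterase inhibitor Ro 20-1724 added with compounds to block cAMP breakdown; potency means the concentration at half of the fitted maximal effect; nearly all actives have a fitted effect of over 60% in size; about a fifth of the inactives were tested at one dose only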
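Cells stably selected in G418 were plated at 2000/well, grown 16-24 hr, then given compounds in DMSO with the PDE inhibitor […] (300 uM solution added) for 30 min at 37C; cAMP was read by HTRF.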
gsp antagonist: gsp mutant antagonism | gsp-mutant cells, cAMP HTRF, 30 min; control for the full effect not named in the record | Potency, µM (titrated, usually from 76.9 µM), inactives show at the highest dose activity change, negative = inhibition, actives largely listed as inhibitors | 340,000 tested, 0.4% active | AID 624288; active = falling curve of any shape with a large fitted effect; inconclusive = falling curve, mostly with a smaller effect; inactive = flat or rising curve; cell line not stated here;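 further: intracellular cAMP measured with PDE inhibitor Ro 20-1724 present during compound exposure; potency means the concentration at half of the fitted maximal effect; on the % scale 0 is the no-effect control and ±100 the full control effect; nearly all actives have a fitted effect of over 65% in size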
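Cells in G418 medium, seeded 16-24 h, 37C; buffer exchange to DPBS + 1 mM CaCl2, 0.5 mM MgCl2, 0.05% BSA; cpds in DMSO + […] (300 uM stock), 30 min 37C; HTRF cAMP detection.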
CtBP-E1A blk: CtBP/E1A binding inhibition. AlphaScreen GST-E1A/His-CtBP binding, 1536-well; hits give low values; control for the full effect not named in the record. activity change, % (no concentration beside the values). 340,000 tested, 0.49% active; in the data active means activity change below about -65%; inconclusive means about -30% to -65%; inactive means above about -30%; further: on the % scale 0 is the no-effect control and ±100 the full control effect; compound concentration not given in the record
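Steps: dispense buffer (Tris pH 8.0, NaCl 300 mM, TCEP 1 mM, BSA, Tween 20); add 5X protein mix (GST-E1A, His-CtBP, 125 nM each); pin 23 nL compound; 2 h at 37 °C, dark; add 5X beads (50 ug/mL); 1 h; read.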
D2 potentiator: potentiates the human D2 dopamine receptor allosterically; DiscoveRx D2 beta-arrestin cells, luminescence, 90 min; 100% = 57 uM dopamine signal; potentiation, % (concentration not given with the values); 360,000 tested, 0.23% active; AID 624464; active = potentiation of 50% or more; inconclusive = 30% to 50%; inactive = 30% or less;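 further: compound concentration not given in the record; tested on top of an EC20 dose of dopamine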
Target sequence (P14416 whole entry, looked up): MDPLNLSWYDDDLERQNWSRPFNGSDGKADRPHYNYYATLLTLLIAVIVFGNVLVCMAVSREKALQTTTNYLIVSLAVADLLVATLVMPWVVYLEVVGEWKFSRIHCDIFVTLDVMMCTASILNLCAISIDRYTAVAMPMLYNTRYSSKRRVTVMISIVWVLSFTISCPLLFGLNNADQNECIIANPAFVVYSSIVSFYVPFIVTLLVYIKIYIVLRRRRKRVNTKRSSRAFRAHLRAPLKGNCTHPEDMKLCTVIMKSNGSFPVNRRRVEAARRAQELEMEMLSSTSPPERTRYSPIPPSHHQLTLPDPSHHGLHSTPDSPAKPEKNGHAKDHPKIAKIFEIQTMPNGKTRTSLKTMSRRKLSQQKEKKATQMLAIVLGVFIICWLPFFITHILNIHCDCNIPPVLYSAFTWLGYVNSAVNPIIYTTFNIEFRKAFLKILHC
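PathHunter beta-arrestin assay in DiscoveRx D2 cells. Compounds were added with an EC20 of dopamine (50 nM final) for 90 min at 37 deg C. Luminescence was read 1 h after detection reagent, with 57 uM dopamine as the EC100 control.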
Six1-Eya2 blk: inhibitors of human Six1/Eya2 interaction; 360,000 tested, 0.56% active; activity change, % (concentration not given with the values); AlphaScreen GST-Six1/His-Eya2 binding, biochemical; hits give low values; control for the full effect not named in the record; Q15475+O00167; in the data active = activity change below about -65%; inconclusive = about -30% to -65%; inactive = above about -30%; further: on the % scale 0 is the no-effect control and ±100 the full control effect
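Six1/Eya2 binding was read as AlphaScreen signal after compounds were pinned into GST-Six1 plus His-tagged Eya2 (5X stock 250/500 nM) in pH 8.0 Tris/NaCl/TCEP buffer, beads added, then incubated 1 h, 37 C, dark.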
D2 ag: agonists of human D2 dopamine receptor (beta-arrestin). activation, % (no concentration beside the values). 360,000 tested, 0.084% active. P14416. DiscoveRx PathHunter D2 beta-arrestin, luminescence, 90 min; 100% = 57 uM dopamine signal. AID 624465; in the data active = activation above about 40%; inconclusive = about 15% to 40%; inactive = below about 15%; further: compound concentration not given in the record; the text of the record calls up to 30% inactive
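Agonist mode: compounds alone added to overnight-plated D2 PathHunter cells for 90 min at 37 C, with 57 uM final dopamine (EC100) defining full response. Beta-arrestin recruitment detected by chemiluminescent reagent, read after 1 h at ambient temperature.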
* marks the source's active call; other numbers are inactive results; ? = inconclusive; . = not tested or not shown; [ ] = another dose, or the depositor's remark.

The opening 3 entries (preview)
SMILES	gsp ag	gsp antagonist	CtBP-E1A blk	D2 potentiator	Six1-Eya2 blk	D2 ag
COc1ccc(-c2[nH]ncc2C2N=C(N)Nc3nc4ccccc4n32)cc1 (centres undefined)	21%[15.4 µM]	-26%	-2	-6	-1	-2.2
CCOc1ccc(NC(=O)CN2CCN(CC(=O)Nc3cc(OC)cc(OC)c3)CC2)cc1	?	11%	2	2	0	-2.3
CCN(CC)CCCN1C(=O)CSC1c1ccc2c(c1)OCO2 (centres undefined)	5%	5%	8	-22	-2	-1.8

The listing, from the first entry:
SMILES	gsp ag	gsp antagonist	CtBP-E1A blk	D2 potentiator	Six1-Eya2 blk	D2 ag
COc1ccc(-c2[nH]ncc2C2N=C(N)Nc3nc4ccccc4n32)cc1 (centres undefined)	21%[15.4 µM]	-26%	-2	-6	-1	-2.2
CCOc1ccc(NC(=O)CN2CCN(CC(=O)Nc3cc(OC)cc(OC)c3)CC2)cc1	?	11%	2	2	0	-2.3
CCN(CC)CCCN1C(=O)CSC1c1ccc2c(c1)OCO2 (centres undefined)	5%	5%	8	-22	-2	-1.8
CC(=O)c1c(C(C)=O)c(C)n(Cc2ccccc2)c1C	-46%[inhibitor]	1%	4	17	5	5.9
Cn1c(=O)c2c(nc(OCc3ccccc3)n2C)n(C)c1=O	23%	6%	-1	-1	0	-2.7
CCSc1nc(=S)n(Cc2ccccc2)c(C)c1C(C)=O	3%	13%	-6	-1	1	-0.7
COC(=O)[C@H]1C[C@@H]1[C@H](NC(=O)c1cccnc1)c1ccccc1	.	3%	3	-2	3	-0.6
Oc1ccccc1CNc1ccc2c(c1)OCCO2	-12%	-2%	-5	-2	-15	0.1
COCCn1nnnc1C(c1ccccc1OC)N1CCc2ccccc2C1 (centres undefined)	-10%	-1%	2	-5	4	-3.0
CCCCn1c(N)c(N(CCC(C)C)C(=O)c2ccc3c(c2)OCO3)c(=O)[nH]c1=O	-42%[inhibitor]	-5%	6	-16	8	-1.9
CSc1nc(N2CCOCC2)c2c(c1C#N)CCCCC2	?	?	13	-16	12	-0.3
CN(CC(=O)N1CCc2ccccc2C1)S(=O)(=O)c1ccc2c(c1)c(=O)n(C)c(=O)n2C	-19%	-10%	-3	-3	1	-5.5
C=CCSc1nc2[nH]ncc2c(=O)[nH]1	?	6%	3	-2	0	-1.8
O=C(OCC#CCSc1nnc(-c2ccc([N+](=O)[O-])cc2)o1)c1cccs1	-70%[inhibitor]	-15%	?	26	?	3.8
O=C(NCCN1CCOCC1)C1CCN(Cc2ccccc2O)CC1	-1%	9%	7	-9	3	-1.0
O=C(CCSc1ccccc1)NCCSCc1ccccc1	-60%[inhibitor]	8%	2	-21	6	-1.8
O=C(c1ccc(N2C(=O)C3CC=C(Cl)CC3C2=O)cc1)N1CCOCC1 (centres undefined)	-2%	5%	7	-24	10	-5.0
COc1cc(NC(=O)COc2ccccc2Cl)ccc1NC(=O)c1cccs1	6%	-4%	-27	-6	-12	2.3
Cc1ccc(CSc2nnc(-c3ccncc3)n2C)cc1	16%	-9%	2	-7	-2	-0.7
CCN(C(=O)Nc1cccc(Cl)c1)c1ccccc1	11%[15.4 µM]	-11%	1	-7	-4	-2.4
CC(C)N1CCC1(C)C(=O)Nc1cccc2ccccc12 (centres undefined)	.	.	6	4	6	-3.6
O=C(O)C1=CC[C@@H](c2ccc(Cl)cc2)N(S(=O)(=O)c2ccc(Cl)cc2)C1	-11%	-22%	.	-4	-6	-0.2
Cc1cc(C(=O)N/N=C/c2ccc(N3CCOCC3)cc2)c(C)o1	20%[15.4 µM]	.	0	8	-4	-5.5
COc1ccc(S(=O)(=O)NCCc2cn3nc(C)c(C)nc3n2)cc1C	?	-5%	-4	-5	-2	-4.6

Whole records, quoted from the list. Values in the order: gsp ag	gsp antagonist	CtBP-E1A blk	D2 potentiator	Six1-Eya2 blk	D2 ag
`Cc1ccc(CSc2nnc(-c3ccncc3)n2C)cc1` is listed with 16%	-9%	2	-7	-2	-0.7
`CCN(C(=O)Nc1cccc(Cl)c1)c1ccccc1` is listed with 11%[15.4 µM]	-11%	1	-7	-4	-2.4

Other results follow:
SMILES	gsp ag	gsp antagonist	CtBP-E1A blk	D2 potentiator	Six1-Eya2 blk	D2 ag
CC1(c2cccc(Br)c2)NC(=O)N(CC(=O)Nc2ccc(S(N)(=O)=O)cc2)C1=O (centres undefined)	9%	0%	0	-4	9	-3.2
C[C@H](CO)N1C[C@H](C)[C@H](CN(C)S(=O)(=O)c2ccccc2)OCc2ccccc2-c2c(n(C)c3ccccc23)C1=O	5%	.	-3	0	-6	-3.3
CC(C)OC(=O)c1ccc(Cn2nnc3ccccc3c2=O)cc1	9%	-5%	18	-11	10	-0.9
Cc1ccc(C(=O)N/C(=C\c2ccc(-c3cccc([N+](=O)[O-])c3)o2)C(=O)NCCCN2CCOCC2)cc1	22%	-28%	?	-20	-22	14
CCCCCCCCCCCCCCCCCCNc1ccn(C2OC(COP(=O)(O)OCC3OC(n4cc(F)c(=O)[nH]c4=O)CC3O)C(O)C2O)c(=O)n1 (centres undefined)	0%	-12%	3	4	?	0.8
COCCCn1c(SCC(=O)Nc2oc(C)c3c(C)n[nH]c(=O)c23)nc2ccccc2c1=O	?	27%	0	2	-7	-4.9
CCOc1ccccc1N1CCN(Cc2c(C)n(C)n(-c3ccccc3)c2=O)CC1	8%[15.4 µM]	3%	11	-7	13	-3.5
CC(=O)c1ccc(N2CCN(S(=O)(=O)c3ccccc3)CC2)c(F)c1	6%[15.4 µM]	-4%	5	-6	2	-1.7
COc1ccc(-c2n[nH]c3c2CN(C(=O)c2ccc(OC)c(OC)c2)CC3)cc1	16%	4%	.	-4	-7	-3.1
Cc1ccc([C@@H]2CC(=O)[C@@H]3CN(S(=O)(=O)c4ccc(C)cc4)[C@H](c4cccc5ccccc45)C[C@@H]3N2S(=O)(=O)c2ccc(Cl)cc2)cc1	-27%	.	4	5	0	-9.6
O=C(Nc1cccs1)Nc1c(F)c(F)c(F)c(F)c1F	9%[15.4 µM]	1%	-16	12	0	-3.6
CCOC(=O)c1oc2ccc(Br)cc2c1NC(=O)CN1CCN(C)CC1	22%	-1%	-1	-11	-9	-2.6
Clc1ccc(-c2ccccc2)nn1	16%[15.4 µM]	2%	2	0	3	-1.9
CCOC(=O)CCSc1cc(C)c2ccccc2n1	?	-2%	8	-6	28	-1.9
C#CCOc1ccc(C2C3=C(CCCC3=O)N(CC(=O)O)C3=C2C(=O)CCC3)cc1Br	-28%	11%	-1	2	-1	3.5
O=C(CCNC(=O)c1ccccc1Cl)NCc1ccco1	-30%[inhibitor]	22%	3	-2	-5	-7.4
CCOC(=O)[C@@H]1[C@H]2COc3cc(OC)ccc3[C@H]2N2C(=O)N(c3ccc(C)cc3)C(=O)[C@]12C	-32%[inhibitor]	-6%	-2	-2	1	-3.9
O=C(Cn1c(=O)oc2cc(S(=O)(=O)N3CCCC3)ccc21)NCc1ccc(F)cc1	-33%	-12%	-27	-3	13	-1.8
CC(C(=O)NC1C=CS(=O)(=O)C1)N1C(=O)/C(=C\c2ccccc2)SC1=S (centres undefined)	-12%	-3%	.	-14	-2	-0.1
COc1cccc(NC(=O)COC(=O)c2ccc3ccccc3n2)c1	1%[15.4 µM]	6%	-5	-10	3	-0.4
Cc1cc(F)ccc1S(=O)(=O)N1CCC2(CC1)OCCN2S(=O)(=O)c1cccs1	2%[15.4 µM]	-18%	9	-5	-10	-2.3
O=C(CN1CCCCCC1)NCC1CCCO1 (centres undefined)	-22%	-8%	0	-15	8	-0.1
Cc1ccc(-c2nn3c(C)nnc3s2)cc1NC(=O)c1ccc(-c2ccc(Cl)cc2Cl)o1	10%	-11%	3	-2	-1	0.6
CC1CCC(C(=O)NNC(=O)c2cc(-c3ccco3)[nH]n2)CC1 (centres undefined)	7%[15.4 µM]	-9%	0	3	1	-2.1

7 of the entries above in order of their number in D2 ag, smallest number first:
canonical_smiles,gsp ag,CtBP-E1A blk,D2 potentiator,Six1-Eya2 blk,D2 ag
O=C(CCNC(=O)c1ccccc1Cl)NCc1ccco1,-30%[inhibitor],3,-2,-5,-7.4
CCOC(=O)[C@@H]1[C@H]2COc3cc(OC)ccc3[C@H]2N2C(=O)N(c3ccc(C)cc3)C(=O)[C@]12C,-32%[inhibitor],-2,-2,1,-3.9
Cc1cc(F)ccc1S(=O)(=O)N1CCC2(CC1)OCCN2S(=O)(=O)c1cccs1,2%[15.4 µM],9,-5,-10,-2.3
Clc1ccc(-c2ccccc2)nn1,16%[15.4 µM],2,0,3,-1.9
COc1cccc(NC(=O)COC(=O)c2ccc3ccccc3n2)c1,1%[15.4 µM],-5,-10,3,-0.4
Cc1ccc(-c2nn3c(C)nnc3s2)cc1NC(=O)c1ccc(-c2ccc(Cl)cc2Cl)o1,10%,3,-2,-1,0.6
C#CCOc1ccc(C2C3=C(CCCC3=O)N(CC(=O)O)C3=C2C(=O)CCC3)cc1Br,-28%,-1,2,-1,3.5

Continued.
SMILES	gsp ag	gsp antagonist	CtBP-E1A blk	D2 potentiator	Six1-Eya2 blk	D2 ag
O=C(NC12CC3CC(CC(C3)C1)C2)c1cncc(Br)c1	4%[15.4 µM]	-3%	6	-4	8	-2.9
NC(N)=NCCC[C@H](NC(=O)OCc1ccccc1)C(=O)O	.	6%	6	1	6	-0.2
CCOC(=O)c1cc(-c2ccccc2)nn1CC1CC(c2ccc(OC)cc2)=NO1 (centres undefined)	-43%[inhibitor]	-3%	-13	-15	10	-2.1
CCCc1cc(=O)[nH]c(SCC(=O)c2cc(C)n(CC3CCCO3)c2C)n1 (centres undefined)	5%	1%	.	-4	21	-1.1
Cc1ccc(C)c2[nH]c(=O)c(CN(CC3CCCO3)S(=O)(=O)c3ccc4c(c3)OCCO4)cc12 (centres undefined)	-8%	-8%	8	-12	4	4.4
CCCN1CCN(CCCNC(=O)Cn2ncc3c4ccccc4n(C)c3c2=O)CC1	?	10%	3	-6	0	-7.6
Cc1ccc2c(c1)c1c(n2C)-c2[nH]ncc2CC1	-17%	7%	-12	-24	-22	-1.7
COCCn1c(C)cc(C(=O)COc2cccnc2[N+](=O)[O-])c1C	-41%[inhibitor]	-13%	-12	-8	-5	-0.4
